Screens deposited in PubChem by National Center for Advancing Translational Sciences (NCATS).
Sfp inh: Sfp phosphopantetheinyl transferase inhibition. Q9F4F7. Biochemical Sfp PPTase activity, qHTS. Potency, µM, without a hit: max response, negative = inhibition, actives largely listed as inhibitors. actives 3.5% (n = 310,000). AID 1490; active means well fitted inhibition curve with a large enough effect; inconclusive means small, poorly fitted or top-dose-only effect, or another doubt; inactive means no such curve, though single readings can be large or run the other way;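 further: the enzyme is Sfp with the accession as filed and its product quenches rhodamine fluorescence; potency means the concentration at half of the fitted maximal effect; 0% = enzyme reaction without inhibitor and -100% = no enzyme wells; top concentration of the series not given in the record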
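Fluorescence-quenching assay: 15 nM Sfp-PPTase preincubated 15 min at room temperature with compound, then 5 uM rhodamine-CoA and 12.5 uM BHQ-2-labelled YbbR peptide added. Fluorescence (ex 525/em 598 nm) read at start and after 30 min; difference gives rate.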
Six1-Eya2 blk: Six1/Eya2 interaction inhibition; AID 651725; actives 0.56% (n = 360,000); Q15475+O00167; activity change, % (no concentration beside the values); AlphaScreen GST-Six1/His-Eya2 binding, biochemical; hits give low values; control for the full effect not named in the record; in the data active = activity change below about -65%; inconclusive = about -30% to -65%; inactive = above about -30%; further: on the % scale 0 is the no-effect control and ±100 the full control effect; compound concentration not given in the record
Target sequence (O00167 whole entry, looked up): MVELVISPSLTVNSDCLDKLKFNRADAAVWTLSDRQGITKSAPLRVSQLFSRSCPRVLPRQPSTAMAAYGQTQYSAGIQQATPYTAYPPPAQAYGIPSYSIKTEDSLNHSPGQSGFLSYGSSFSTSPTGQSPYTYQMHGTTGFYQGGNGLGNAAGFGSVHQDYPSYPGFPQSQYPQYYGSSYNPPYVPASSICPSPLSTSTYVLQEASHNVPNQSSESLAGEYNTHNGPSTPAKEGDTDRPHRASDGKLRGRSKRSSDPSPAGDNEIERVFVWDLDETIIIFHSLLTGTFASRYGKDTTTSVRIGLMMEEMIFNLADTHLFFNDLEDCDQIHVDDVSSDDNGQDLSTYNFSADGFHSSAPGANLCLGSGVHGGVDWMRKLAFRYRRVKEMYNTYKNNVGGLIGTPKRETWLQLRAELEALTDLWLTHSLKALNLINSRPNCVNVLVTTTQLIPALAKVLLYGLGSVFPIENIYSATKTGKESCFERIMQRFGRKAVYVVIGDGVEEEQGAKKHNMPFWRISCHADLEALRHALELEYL
Target sequence (Q15475 whole entry, looked up): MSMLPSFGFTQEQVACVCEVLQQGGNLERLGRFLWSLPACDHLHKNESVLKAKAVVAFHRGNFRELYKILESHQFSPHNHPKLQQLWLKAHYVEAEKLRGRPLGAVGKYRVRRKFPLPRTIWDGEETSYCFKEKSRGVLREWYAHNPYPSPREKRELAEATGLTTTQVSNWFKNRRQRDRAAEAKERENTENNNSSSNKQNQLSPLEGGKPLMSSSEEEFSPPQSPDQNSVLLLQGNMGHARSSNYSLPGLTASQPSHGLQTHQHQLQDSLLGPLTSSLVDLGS
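Homogeneous AlphaScreen proximity assay pairing GST-Six1 with His-tagged Eya2 (added as 5X mix: 250 nM and 500 nM) in 50 mM Tris pH 8.0, 300 mM NaCl, 1 mM TCEP. Glutathione donor and nickel acceptor beads; 1 h, 37 °C, dark.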
TRPV1 PAM: enhances activation of the human vanilloid receptor TRPV1; Q8NER1; TRPV1-expressing cells, Fluo-8 calcium influx, capsaicin EC20 potentiation; host cell line not named in the record; control for the full effect not named in the record; potentiation, % at 8.33 µM; actives 0.02% (n = 320,000); AID 540277; active means potentiation above 80%; inconclusive means 30% to 80%; inactive means below 30%; further: 0% is about no effect
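TRPV1-expressing cells were cultured overnight at 35.5C and loaded with Fluo-8 calcium dye for 40 to 90 min at room temperature. After a 10 s baseline, compound was added and calcium influx was read kinetically for 3 min (ex 480/em 520 nm).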
D2 agonist: human D2 receptor agonism in beta-arrestin assay; DiscoveRx PathHunter D2 beta-arrestin, luminescence, 90 min; 100% = 57 uM dopamine signal; actives 0.084% (n = 360,000); P14416; activation, % (concentration not given with the values); in the data active = activation above about 40%; inconclusive = about 15% to 40%; inactive = below about 15%; further: compound concentration not given in the record; the text of the record calls up to 30% inactive
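Agonist mode: compounds alone added to overnight-plated D2 PathHunter cells for 90 min at 37 C, with 57 uM final dopamine (EC100) defining full response. Beta-arrestin recruitment detected by chemiluminescent reagent, read after 1 h at ambient temperature.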
PINK1 expr mod: PINK1 expression modulation; PINK1 immunofluorescence, high-content cytometry, 24 h; Potency, µM (doses to about 76.6 µM), for inactives: at the highest dose activation (PINK1 increase), hits mostly activators; actives 0.2% (n = 410,000); AID 624263; active = well fitted activation curve with a large enough effect; inconclusive = small, poorly fitted or top-dose-only effect; inactive = flat fitted curve, though single readings scatter; cell line not stated here;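 further: potency means the concentration at half of the fitted maximal effect; % of control where 0% means no effect; nearly all actives have a fitted effect of over 65% in size; a mitochondrial uncoupler was the plate control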
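PINK1 protein, normally rapidly degraded, was detected by immunofluorescence after 24 hour compound treatment of a stable cell line. Titration data (5 concentrations) came from laser-scanning cytometry, with CCCP-treated wells as controls.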
CtBP-E1A inh: CtBP/E1A binding inhibition; activity change, % (test concentration not listed); actives 0.49% (n = 340,000); AlphaScreen GST-E1A/His-CtBP binding, 1536-well; hits give low values; control for the full effect not named in the record; AID 651724; in the data active means activity change below about -65%; inconclusive means about -30% to -65%; inactive means above about -30%; further: on the % scale 0 is the no-effect control and ±100 the full control effect; compound concentration not given in the record
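Homogeneous bead-based format: GST-tagged E1A captured on glutathione donor beads, His-tagged CtBP on nickel acceptor beads; compounds precede bead addition by 2 h at 37 °C.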
D2 PAM: human D2 receptor positive allosteric modulation | AID 624464 | potentiation, % (test concentration not listed) | actives 0.23% (n = 360,000) | DiscoveRx D2 beta-arrestin cells, luminescence, 90 min; 100% = 57 uM dopamine signal | P14416; active = potentiation of 50% or more; inconclusive = 30% to 50%; inactive = 30% or less;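 further: compound concentration not given in the record; tested on top of an EC20 dose of dopamine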
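PathHunter D2 cells, attached overnight at 37 deg C, received compound in DMSO plus dopamine at EC20 (50 nM final) for 90 min at 37 deg C. Beta-arrestin recruitment was read as luminescence after 1 h with detection reagent at ambient temperature.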
Numbers without * were called inactive; ? = inconclusive; nt = no result given; & = joins results of further samples; [ ] = remark or other dose. Rows were taken by chance; any-hit rate near 3.7%.

SMILES	Sfp inh	Six1-Eya2 blk	TRPV1 PAM	D2 agonist	PINK1 expr mod	CtBP-E1A inh	D2 PAM
CCC(=O)Nc1ccc(C=C(C(C)=O)C(C)=O)cc1	11%	0	3	-3.2	7.1%	nt	-22
CN(C)/C=C(\C=O)c1onc(-c2ccccc2Cl)c1C#N	-10%	11	3	1.2	0.0%	2	-2
CC(C)OC(=O)c1ccc(NC(=O)c2ccco2)cc1	7%	-15	3	-3.2	-0.9%	7	26
CCOc1ccc(N2C(=O)CC(N3CCN(C4CCc5ccccc5C4)CC3)C2=O)cc1 (stereo not given)	2%	10	6	-3.5	-1.1%	5	-27
CCCN(C(=O)CSc1nnc(-c2ccc3c(c2)OCO3)o1)C1CCS(=O)(=O)C1 (stereo not given)	nt	1	nt	-3.1	3.1%	9	-8
COc1ccccc1NC(=O)N1CCN(c2ccc3nnc(-c4ccc(F)cc4)n3n2)CC1	13%	?	-11	6.2	2.7%&0.2%	-26	-1
COc1ccc([C@H]2N[C@]3(CCCN(Cc4ccco4)C3=O)[C@H]3C(=O)N(C)C(=O)[C@@H]23)cc1	nt	4	nt	-6.1	1.1%	5	-13
CCc1cc(C(c2ccccn2)N2CCN(C)CC2)c(NC(=O)c2ccccc2)s1 (stereo not given)	7%	-26	-14	-2.5	0.1%	-14	-25
CN1C(N)=NC(=O)/C1=C\c1ccc(Br)cc1	8%	-2	3	-8.5	0.9%	nt	-5
CCC(C)NC(=O)c1cc2c(=O)n3cccc(C)c3nc2s1 (stereo not given)	12%	-20	-1	4.6	3.3%	-8	0
OCC[C@@H]1C[C@H](O)[C@@H](O)[C@@]2(CCc3ccccc3CO2)O1	-10%	0	-4	-2.6	-0.2%	-8	-10
O=C(COC(=O)C1CCN(c2ccc(C(F)(F)F)cn2)CC1)Nc1ccc(Cl)cn1	4%	8	-41	-6.2	1.5%	-2	-4
O=C(c1ccncc1)N1CCN(C(=O)c2ccncc2)CC1	-1%	0	0	-2.4	13%[38.3 µM]	45	-14
COCCN(C(=O)CCc1nnc(Cc2c[nH]c3ccccc23)o1)C(C)C	8%	2	-6	-2.9	0.3%	-5	-4
Cn1cccc1C(=O)OCC(=O)Nc1ccc2c(c1)OCO2	22%	3	-10	-5.1	-0.4%	1	-9
COCc1cc(=O)n2[nH]c(C(C)(C)C)cc2n1	3%	15	-19	-1.7	1.2%	9	-1
Cc1ccc(NCc2ccncc2)c(Br)c1	?	-14	0	-4.5	2.5%	-3	-14
COc1cc(OC)c2c(c1)C(=O)OC2OC (stereo not given)	4%	4	15	-2.8	-1.0%	nt	2
COC(=O)NCC1(C)CC(NC(=O)OC)CC(C)(C)C1 (stereo not given)	-8%	2	-7	-2.2	-1.6%	4	3
CC(c1ccco1)N(C(=O)c1ccccc1NS(=O)(=O)c1ccc(Cl)cc1)c1ccccn1 (stereo not given)	24%	6	-10	-2.1	-0.8%	7	-4
C=CCOc1c(Br)cc(C2NC(=O)NC(C)=C2C(C)=O)cc1OCC (stereo not given)	12%	0	1	-0.2	?	-13	-9
C=CCOC(=O)C1=C[C@@H](c2coc3ccccc3c2=O)C[C@@H](OCc2ccc(CO)cc2)O1	-10%	-4	2	-0.1	0.4%	0	-2
O=C(Nc1ccc(Cl)cc1Cl)c1csc(-c2cccnc2)n1	16%	2	nt	-5.0	-0.9%	-4	-9
Cc1ccc(S(=O)(=O)NCCC(=O)NC(C)CCc2ccccc2)cc1 (stereo not given)	nt	3	-3	1.1	0.1%	2	-1
O=C(NNC(=O)C1CC1)c1cc(Br)c(Br)s1	nt	8	nt	7.9	0.5%	4	-1
CC(C)(C)c1ccc(C(=O)NC2CCN(Cc3ccccc3)CC2)cc1	14%	0	-24	-2.9	0.2%	-12	-35
CC(C)CN(C(=O)c1ccco1)C1CCS(=O)(=O)C1 (stereo not given)	nt	-9	3	3.4	1.5%	0	-13
CCOC(=O)CSc1ncc(-c2cccc(Cl)c2)cn1	6%	29	-3	-0.6	-0.6%[38.3 µM]	33	0
O=C(Nc1ccc2nc([C@H]3C[C@H](O)[C@@H](CO)O3)[nH]c2c1)NC(c1ccccc1)c1ccccc1	nt	1	nt	6.3	0.0%	0	1
Cc1nn(-c2ccccc2)c(NC(=O)c2ccccc2)c1Br	13%	7	?	0.1	3.9%	9	-9
O=C(COC(=O)c1ccc(F)c(S(=O)(=O)N2CCOCC2)c1)NCCc1ccccc1	nt	9	-10	2.6	4.7%	0	-4
O=C(COc1ccccc1Cl)Nc1cccc(S(=O)(=O)N2CCCC2)c1	nt	-12	3	-1.2	0.6%	-16	0
CCO[C@@H]1OC(C(=O)NCc2nc3ccccc3[nH]2)=C[C@H](C2CC2)[C@H]1CCCO	-4%	-2	-14	-1.2	5.3%	3	-36
Cc1ccc(/C=N/Nc2nc(C)cc(C)n2)cc1	79µM*	-2	3	8.6	1.0%	-14	-11
CCS(=O)(=O)N1CCCC(C(=O)NC2CCCCC2)C1 (stereo not given)	9%	10	4	-4.6	0.8%	-2	-12
Cc1c(NC2=CC(=O)CC(C)(C)C2)ccc([N+](=O)[O-])c1C	8%	6	-3	-3.6	1.5%	-8	-23
Cc1cccc(C)c1OCc1cc(C(=O)N2CCN3CCCC3C2)no1 (stereo not given)	8%	-2	-24	1.6	?	1	8
Cc1ccc(Nc2nc(Cl)c(C=O)s2)cc1Cl	-9%	6	1	0.9	4.9%	11	-5
Cc1cc(C(=O)O)ccc1-c1ccc(CO)o1	?	-3	11	-3.4	0.1%	0	-3
O=C(O)c1cncc(C#CCC2CCCCC2)c1	-12%	4	3	-0.9	0.6%	13	-1
Cc1nc2ccc(NC(=O)c3sccc3C)cc2s1	-3%	3	9	-2.2	2.7%	5	-7
CCn1c(-c2csc3c2CCCC3)n[nH]c1=S	-6%	-3	-2	-2.7	-1.3%	-14	-21
O=S(=O)(NCc1ccccc1)c1ccc(S(=O)(=O)N(Cc2ccccn2)Cc2ccco2)cc1	0%	-2	-12	1.6	?	-7	2
Cc1cc([N+](=O)[O-])ccc1NS(=O)(=O)c1ccccc1	nt	0	nt	-1.5	20%	1	-15
CCCCN1C(=O)/C(=C2/C=CC=CN2C)SC1=S	?	-24	-4	-5.1	-0.4%[38.3 µM]	48	-25

Single records, from the list above. Screens in order: Sfp inh, Six1-Eya2 blk, TRPV1 PAM, D2 agonist, PINK1 expr mod, CtBP-E1A inh, D2 PAM
Entry for CCS(=O)(=O)N1CCCC(C(=O)NC2CCCCC2)C1 (stereo not given) = 9%, 10, 4, -4.6, 0.8%, -2, -12
Entry for CCCCN1C(=O)/C(=C2/C=CC=CN2C)SC1=S = ?, -24, -4, -5.1, -0.4%[38.3 µM], 48, -25
Entry for CCO[C@@H]1OC(C(=O)NCc2nc3ccccc3[nH]2)=C[C@H](C2CC2)[C@H]1CCCO = -4%, -2, -14, -1.2, 5.3%, 3, -36
Entry for Cc1cc([N+](=O)[O-])ccc1NS(=O)(=O)c1ccccc1 = nt, 0, nt, -1.5, 20%, 1, -15
Entry for Cc1ccc(/C=N/Nc2nc(C)cc(C)n2)cc1 = 79µM*, -2, 3, 8.6, 1.0%, -14, -11

(more compounds)
SMILES	Sfp inh	Six1-Eya2 blk	TRPV1 PAM	D2 agonist	PINK1 expr mod	CtBP-E1A inh	D2 PAM
CC(=O)Nc1ccc(S(=O)(=O)N(C)CC(=O)NC2=NCCS2)cc1	-4%	5	-10	-3.4	3.4%	16	-3
COc1cc(OC)cc(-c2cc3nc(C)c(CCC(=O)O)c(C)n3n2)c1	9%	?	-2	-3.0	3.4%	?	0
COc1cc(Cl)c(C)cc1NC(=O)CCCn1c(=O)oc2ccccc21	12%	0	-10	0.6	0.7%	-8	-22
CCO/C(C)=N/n1c2nc3ccccc3nc2c2c(=O)n(Cc3ccccc3Cl)c(C)nc21	-5%	-16	-5	0.1	-0.3%	-14	-3
Cc1nc(Cl)sc1C(=O)Nc1ccc(Cl)cc1	21%	-5	-9	-3.2	-0.8%	20	-1
Cc1ccc(/C=C/S(=O)(=O)NCC(=O)OCC(=O)Nc2ccc(C(N)=O)cc2)cc1	nt	-4	-21	-1.2	-0.2%	-6	9
CC1CCCN(C(=O)/C(=C/c2ccco2)NC(=O)c2ccccc2)C1 (stereo not given)	-18%	0	-21	-2.7	0.4%	-9	-4
CC(C(=O)NCC1CCCO1)n1cccc1C(=O)c1ccccc1 (stereo not given)	-7%	2	?	1.3	-0.6%	6	-4
CC(C)Cc1ccc(C(C)C(=O)N2CCOCC2)cc1 (stereo not given)	19%	5	-17	1.0	2.4%[38.3 µM]	9	-4
COc1ccc(S(=O)(=O)N2CC(C)N(S(=O)(=O)c3ccc(OC)cc3)CC2C)cc1 (stereo not given)	13%	7	-1	-4.4	-1.7%	5	-4
O=C(Cn1cc(-c2ccccn2)nn1)NS(=O)(=O)c1cccc(OC(F)F)c1	nt	2	nt	-5.8	1.3%	-1	-10
COC(=O)c1ccc(NC(=O)CCS(=O)(=O)c2ccc(Br)cc2)cc1	10%	-13	11	-4.3	0.1%&5.7%	-1	-9
Cc1ccc(-c2nn(CC(=O)N(C)C)c(=O)c3ccccc23)cc1S(=O)(=O)N(C)C	20%	1	-5	0.1	?	1	-9
O=C(NC1CCCCCCC1)c1cc(-c2ccccn2)nc2ccccc12	18%	0	-11	-1.9	5.5%	-2	-1
COC(=O)Cc1[nH]nc2c1C1(CCSCC1)C(C#N)=C(N)O2	7%	-1	0	-2.4	nt	10	-16
CCCC(/C=C/c1ccc(OC(C)=O)cc1)=C1/c2ccccc2C(=O)N1c1ccccc1	nt	40	9	3.8	1.8%	nt	0
COc1ccc(/C=C(/NC(=O)c2ccc(C)cc2)C(=O)NCC2CCCO2)cc1 (stereo not given)	21%	-5	10	4.2	-1.3%	0	-2

Single values from above.
Reading of CC1CCCN(C(=O)/C(=C/c2ccco2)NC(=O)c2ccccc2)C1 (stereo not given) under PINK1 expr mod: 0.4%
Reading of CC(C(=O)NCC1CCCO1)n1cccc1C(=O)c1ccccc1 (stereo not given) under Sfp inh: -7%
